Source: PubChem BioAssay
A1 inh: caspase 3/7 activation in MEF A1-2A-BIM cells, primary screen, A1 inhibitor project, cell-based, luminescence, HTS; Caspase-Glo 3/7 luminescence, 3 h; percent of clofoctol response, vehicle zero; caspase activation, % (no concentration beside the values); hit rate 0.066% among 330,000;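 active means over half of replicate activation scores above 10%, or exactly half above 10 with the replicate mean above 10; inconclusive means replicate mean below 10 yet half the replicates above 10; inactive means over half of replicates below 10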;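 further: wells of about 30 µL received 50 nL stock; many hits fall short of the cut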
Ecoli rRNA inh: reduced GFP signal of wild-type E. coli, primary screen, bacterial rRNA inhibitor project, GFP/RFP fluorescence, OD600, single point | E. coli WT GFP vs humanized-ribosome RFP mutants, 24 h; stronger effect = lower value; DMSO median 0, no signal -100 | GFP signal change (wild-type ribosome), % (concentration not given with the values) | hit rate 1.6% among 350,000;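 active means significant combined selectivity score with lowered wild-type GFP, culture density cut under 30%, mutant RFP and density less affected; inactive means any of these conditions unmet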; further: one replicate is shown; some compounds called inactive have numbers as strong as hits
Calb FLC: C. albicans growth inhibition with fluconazole, primary screen, CaCi-2 strain, Alamar Blue fluorescence | C. albicans CaCi-2 (fluconazole-resistant clinical isolate) + fluconazole, 48 h | growth inhibition, % (test concentration not listed) | hit rate 0.57% among 300,000 | AID 1979, 2009;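 active means most replicates above 75%; inconclusive means exactly half above 75%; inactive means most below 75%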;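 further: all wells also contain fluconazole at 8 µg/ml as a sub-toxic cotreatment; 0% = median of DMSO wells and 100% = median of geldanamycin control wells; wells of about 8 µL received 7.5 nL stock; the first replicate is given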
Beta apoptosis: inhibitors of cytokine-induced beta cell apoptosis, primary screen, luminescence | protection from apoptosis, % (concentration not given with the values) | hit rate 0.8% among 300,000 | INS-1E cytokine-induced death, ATP luminescence, 48 h; percent of positive-control rescue, neutral wells zero;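 active means all replicates at 75% or more, or half of them and the mean; inconclusive means half reach 75% but not the mean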;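 further: 0% = cytokine-treated negative control wells and 100% = positive control rescue; higher means more ATP so stronger rescue from cytokine killing; wells of about 40 µL received 100 nL stock; the first replicate is given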
T cruzi repl: inhibitors of intracellular T. cruzi growth, primary screen, luminescence, NIH3T3 host cells. T. cruzi beta-gal in NIH3T3, 90 h. inhibition, % (concentration not given with the values). hit rate 1.4% among 300,000. AID 1885, 2009;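 active means mean inhibition across valid replicates above about 55%, limit read from the data; inconclusive means mean below that limit but half or more replicates reach it; inactive means mean below it, under half of replicates reach it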;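 further: signal also drops with host cell toxicity which is not excluded here; 0% = plate median of DMSO wells and 100% = zero luminescence signal; higher percent means less beta-gal luminescence so fewer parasites; stock transfer was 50 nL into about 50 µL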
Beta2AR agonist: beta2AR agonists driving receptor internalization, primary screen, cell-based, FAP fluorogen, flow cytometry. AID 504454, 2011. hit rate 0.43% among 340,000. response, % (concentration not given with the values). Am2.2-beta2AR cells; reference of the scale not given here. Beta-2 adrenergic receptor (Homo sapiens), P07550;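 active means response above a set limit, near 3 SD of response in nonfluorescent compounds, cut at about 42% in these data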;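 further: stock transfer was 100 nL into about 11 µL; a reference agonist was the positive control; negative values mostly stem from fluorescent compounds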
ALR H2O2 inh: inhibitors of human ALR sulfhydryl oxidase, primary screen, biochemical, H2O2 detection, HRP-luminol luminescence, single point; inhibition, % (concentration not given with the values); FAD-linked sulfhydryl oxidase ALR (Homo sapiens), P55789; hit rate 3.8% among 290,000; purified ALR, DTT oxidation;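 active means mean and each replicate at 75% or more; inconclusive means only one of the two met; inactive means neither met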;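 further: stock transfer was 7.5 nL into about 7.5 µL; 0% = neutral wells and 100% = wells with inactivated enzyme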
LANA-H2B inh: blockers of LANA interaction with H2A/H2B – biochemical, FP readout, HTS, primary screen | cell-free LANA-H2A/H2B peptide, fluorescence polarization | inhibition, % (test concentration not listed) | hit rate 0.6% among 320,000 | AID 2629, 2010; in the data active means inhibition mostly above about 10%, no sharp cut-off; inactive means mostly below about 6.7%;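 further: stock transfer was 7.5 nL into about 10 µL; 0% = median of vehicle wells and 100% = median of positive control wells; one replicate is shown; the record names a cut of 25% in any replicate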
Target sequence (Q9QR71 whole entry, looked up): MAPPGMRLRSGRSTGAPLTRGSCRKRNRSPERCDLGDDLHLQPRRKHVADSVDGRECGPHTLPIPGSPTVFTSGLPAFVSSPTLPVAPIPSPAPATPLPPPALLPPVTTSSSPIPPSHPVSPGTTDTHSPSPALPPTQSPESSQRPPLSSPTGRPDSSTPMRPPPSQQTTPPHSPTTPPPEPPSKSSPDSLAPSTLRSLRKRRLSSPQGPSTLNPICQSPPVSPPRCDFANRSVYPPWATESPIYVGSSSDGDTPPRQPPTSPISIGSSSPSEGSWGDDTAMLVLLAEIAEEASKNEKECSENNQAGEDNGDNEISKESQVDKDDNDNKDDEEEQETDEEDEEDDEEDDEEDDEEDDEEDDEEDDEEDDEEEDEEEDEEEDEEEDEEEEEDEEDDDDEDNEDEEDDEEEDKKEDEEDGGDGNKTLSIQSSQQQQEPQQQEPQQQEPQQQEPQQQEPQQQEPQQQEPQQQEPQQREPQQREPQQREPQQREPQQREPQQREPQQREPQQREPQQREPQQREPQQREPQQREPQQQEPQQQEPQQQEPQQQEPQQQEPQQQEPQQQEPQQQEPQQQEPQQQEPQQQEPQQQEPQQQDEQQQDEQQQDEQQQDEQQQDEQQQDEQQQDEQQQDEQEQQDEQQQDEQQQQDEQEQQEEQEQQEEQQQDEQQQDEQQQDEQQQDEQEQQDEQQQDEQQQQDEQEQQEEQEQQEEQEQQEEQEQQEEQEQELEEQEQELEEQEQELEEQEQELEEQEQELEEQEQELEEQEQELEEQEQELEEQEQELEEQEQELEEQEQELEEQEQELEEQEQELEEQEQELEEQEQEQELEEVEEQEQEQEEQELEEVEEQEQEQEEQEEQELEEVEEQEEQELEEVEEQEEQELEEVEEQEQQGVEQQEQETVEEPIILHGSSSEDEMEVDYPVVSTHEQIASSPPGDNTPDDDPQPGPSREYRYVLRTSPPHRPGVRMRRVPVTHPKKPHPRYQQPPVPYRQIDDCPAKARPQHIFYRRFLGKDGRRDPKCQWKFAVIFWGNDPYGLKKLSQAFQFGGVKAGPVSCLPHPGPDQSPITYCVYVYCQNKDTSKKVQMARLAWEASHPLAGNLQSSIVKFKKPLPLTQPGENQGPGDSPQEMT
Ecoli rRNA inh OD600: also measured in Ecoli rRNA inh; calls as there; OD600 change, %; measured here: OD600 growth;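 optical density of the mix in the first replicate; 0 = DMSO median and -100 = no signal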
Ecoli rRNA inh RFP: further read-out of Ecoli rRNA inh, marked with its call; RFP signal change, %; measured here: RFP humanized mutant strains;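 first replicate; 0 = DMSO median and -100 = no signal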
Active calls of the source: *; ? = inconclusive; nt = not tested or not shown. Only part of the results is shown, so the mix of outcomes need not match the whole.

SMILES	A1 inh	Ecoli rRNA inh	Ecoli rRNA inh OD600	Ecoli rRNA inh RFP	Calb FLC	Beta apoptosis	T cruzi repl	Beta2AR agonist	ALR H2O2 inh	LANA-H2B inh
Cc1c(NC(=O)c2cc(-c3cccs3)on2)c(=O)n(-c2ccccc2)n1C	-0.4	nt	nt	nt	0	-5	-22	-3	0	175*
CCn1c2ccccc2c2nc3ccccc3nc21	-0.3	nt	nt	nt	?	8	6	10	-5	-1.3
Cc1ccccc1NC(=O)CCC(=O)OCC(=O)c1ccc(-c2ccccc2)cc1	-0.1	nt	nt	nt	-25	-2	-7	6	nt	2.3
C[C@@H](C(=O)Nc1ccc2ccccc2c1)[C@H]1C[C@]1(C)[C@H](NC(=O)c1cnccn1)c1ccccc1	0.1	-20	-32	15	7	-3	29	-1	-3	-6.9
CC1(C)CC(=O)C([N+](=O)[O-])=C(NCCCO)C1	0.2	8	0	10	2	-6	-3	-2	nt	0.8
Cc1ccc(NC(=O)CSc2nnc(-c3cc(C)[nH]n3)n2N)cc1	1.5	-2	0	-3.3	4	2	-7	-2	2	1.8
O=C(COC(=O)c1cccc(O)c1)Nc1ccc(OC(F)F)cc1	-0.2	-25*	-12*	1.2*	-2	-2	-4	3	-2	4.0
Cn1ncc(N)c1C(=O)Nc1cccc(C(F)(F)F)c1	0.3	nt	nt	nt	-1	1	-13	-3	nt	1.7
CCc1ccc(NC(=O)c2ccc3c(=O)n4c(nc3c2)CCCCC4)cc1	0.2	-4	-7	-5.7	3	4	17	4	-1	2.6
CC(=O)N1CCN(c2ccccc2NC(=O)c2ccc(-c3cccc([N+](=O)[O-])c3)o2)CC1	-0.7	3	4	-11	-8	26	25	-1	-4	-0.3
CCN(C(=O)CSc1nc2ccc(Cl)cc2[nH]1)C1CCS(=O)(=O)C1 (configuration not stated)	-0.3	8	4	1.3	nt	-4	nt	-3	-2	4.5
CCOc1ccccc1C(=O)NCC(=O)NCCCc1ccccc1	-0.5	-14	-28	-5.0	-4	-1	2	-1	-18	-1.9
COc1ccccc1C(=O)N/C(N)=N/c1nc2ccccc2o1	-2.6	nt	nt	nt	-5	nt	8	1	nt	-5.5
CN1CCN(C(=O)c2cc(-c3ccco3)on2)CC1	-0.8	nt	nt	nt	-15	-8	-14	-5	-1	-3.2
O=C(CO/N=C/c1ccc(OC(F)F)cc1)NCc1ccc(F)cc1	0.0	-10	-8	0.4	-17	-4	1	-17	nt	-0.8
[O-]/C(=C(\C(=S)NCc1ccc2c(c1)OCO2)[n+]1ccccc1)c1ccc(Cl)s1	0.4	-17	-17	0.1	1	-12	-5	4	-19	12
Cc1ccccc1N1CCN(CCN2C(=O)CC(=C3c4ccccc4-c4ccccc43)C2=O)CC1	2.1	nt	nt	nt	90*	-5	7	9	-3	3.7
CCOc1ccccc1-c1nnc(SCC(=O)NC2(C#N)CCCC2)o1	0.8	-10	-1	2.3	nt	2	nt	2	-4	nt
CCOP(=O)(OCC)C(Nc1cccc([N+](=O)[O-])c1)c1ccccc1 (configuration not stated)	-0.3	2	-11	-1.2	1	-9	2	7	-1	0.6
O=C(Nc1nc2c(F)cc(F)cc2s1)c1ccccn1	-7.2	5	0	4.7	10	93*	61*	14	-5	0.4
COc1ccc(CN2CC(C(N)=O)Oc3ccccc32)cc1F (configuration not stated)	0.1	-6	-11	0.5	8	-3	-4	5	98*	-3.2
O=C1Nc2ccccc2OC1CC(=O)N1CCCC1 (configuration not stated)	-0.4	3	-3	-2.3	-4	nt	-9	-7	-2	-3.2
COc1cccc2sc3cc(NCCCN4CCOCC4)ccc3c(=O)c12	-0.5	-13	-15	-3.0	nt	-7	nt	15	1	3.1
CCCC(=O)c1cc2ccccc2oc1=O	-0.1	nt	nt	nt	-19	-1	-7	-3	-8	-0.9
CC1CCC(C(=O)NC(C(=O)Nc2ccccn2)C(C)C)CC1 (configuration not stated)	-0.5	3	8	2.3	-26	-3	-14	9	nt	2.1
COC(=O)CSc1nnc(-c2ccoc2C)n1-c1ccc(OC)cc1	?	nt	nt	nt	-10	2	6	32	26	-8.0
Cc1ccccc1C(=O)NC(CC(C)C)C(=O)OCC(=O)c1c(N)n(C)c(=O)n(C)c1=O (configuration not stated)	0.2	6	7	-2.4	7	-7	-10	11	nt	1.9
CCOC(=O)N1CCN(C(=S)Nc2ccccc2C(C)C)CC1	1.4	-2	3	-7.7	-2	2	-27	2	3	0.5
CCN(CC)CCNCC(=O)N1c2ccccc2CCc2ccc(NC(=O)OC)cc21	-0.3	4	5	-1.9	-1	-1	-5	1	3	-1.2
COc1ccc(NC(=S)N2CCC(c3ccccc3)C2)cc1 (configuration not stated)	-1.3	-5	-7	-0.1	-5	nt	-3	-2	nt	-4.9
CCOC(=O)N1CCC(N2CCN(Cc3ccc(F)c(F)c3)C(CCO)C2)CC1 (configuration not stated)	1.7	8	9	1.7	5	-10	11	-4	-5	0.8
CCOc1ccc(NC(=O)c2ccc(NC(=O)c3ccc(CN4CCOCC4)cc3)cc2)cc1	0.6	5	0	-1.0	9	5	1	12	-9	-0.3
C[C@@H]1O[C@@H](OC2C(O)C(OCCc3ccc(O)c(O)c3)OC(CO)C2OC(=O)/C=C/c2ccc(O)c(O)c2)[C@H](O)[C@H](O)[C@H]1O (some centres not stated)	-0.1	nt	nt	nt	-3	1	0	nt	99*	7.2
c1ccc(CCN2CN=C(Nc3nc4ccccc4o3)NC2)cc1	0.9	nt	nt	nt	17	-3	1	-8	-8	1.0
COc1ccc(CC(=O)Nc2ccncc2Cl)cc1	-0.8	8	14	1.2	4	102*	-59	-9	-1	-5.1
COc1ccccc1C#Cc1ccc2c(=O)c3ccccc3n(C)c2c1	-0.4	9	3	-0.2	-1	5	-12	-7	-26	-0.5
COc1ccc(CNC(=O)C2(C)Cc3ccccc3C(=O)O2)cc1 (configuration not stated)	1.3	nt	nt	nt	-10	-6	-15	-1	-3	-0.2
CCOC(=O)c1c(C)n(-c2ccccc2)c2ccc(OCCN(C)C)cc12	0.5	-5	-12	11	8	-2	14	26	-12	0.3
CCC(=O)NC(=S)Nc1ccc(N2CCOCC2)cc1	-0.2	8	15	1.1	1	-4	-11	5	59	-4.1
COc1ccc(/C=N/NC(=O)c2cnccn2)cc1O	0.1	nt	nt	nt	1	1	-30	-6	nt	nt
CN(C(=O)CSc1nnc(-c2ccncc2)n1C)C1CCS(=O)(=O)C1 (configuration not stated)	-0.2	nt	nt	nt	-9	-7	-8	2	4	2.5
COc1ccc(N=C2SC(CC(=O)Nc3ccccc3)C(=O)N2Cc2ccccn2)cc1 (configuration not stated)	0.1	-22	-28	2.3	-12	-3	2	-1	-6	-3.6
CCOC(=O)c1ccc(NC(=O)N2CCN(C(=O)c3ccco3)CC2)cc1	0.0	-7	-2	-0.5	-13	1	-11	-10	nt	-2.1
NS(=O)(=O)c1ccc(NC(=O)CSc2ccc3ccccc3n2)cc1	-0.1	nt	nt	nt	-1	-1	16	0	-9	3.7
CC(=O)c1cccc(NC(=O)/C(=C\c2ccco2)NC(=O)c2cccs2)c1	1.4	nt	nt	nt	-2	-1	-9	-7	19	-4.8
CC(C)(C)OC(=O)N1CCC(CC2CC(c3cccc(Br)c3)=NO2)(C(=O)NCC2CCCCC2)CC1 (configuration not stated)	0.0	10	16	-9.9	19	2	35	0	-7	-2.7
O=C(O)CCn1c(SCc2cccc3ccccc23)nc2ccccc21	-0.7	-16*	1.3*	6.5*	22	-1	-14	4	nt	2.2
COc1cccc(/C=C(/C(=O)OCC(=O)NC2CCCC(C)C2C)c2ccccc2)c1 (configuration not stated)	-0.4	nt	nt	nt	-1	1	3	1	-32	6.3
C=CCSc1nnc2c(n1)OC=Nc1ccccc1-2	1.0	nt	nt	nt	0	-4	3	15	9	-5.4
Cc1ccc(N2C(=O)N3[C@H]4c5ccccc5OC[C@@H]4[C@@H](c4ccccc4)[C@@]3(C)C2=O)cc1	2.0	nt	nt	nt	30	-2	17	3	0	5.0
O=C(CS(=O)(=O)c1cn(CC(=O)N2CCOCC2)c2ccccc12)NCc1ccccc1	2.1	10	6	-1.0	-9	-4	-4	-14	nt	-2.3
Cc1ccc(C(=O)CSc2nnc3ccccn23)c(C)c1	-2.3	3	1	-1.5	-2	-5	-10	2	55	-6.7
CCOC(=O)Cc1csc(SCC(=O)Nc2cc(C)ccc2OC)n1	0.4	-24*	-13*	-4.5*	-40	3	3	2	2	2.0
CCOc1ccc(NC(=O)COC(=O)Cn2cnc3ccccc32)cc1	0.5	nt	nt	nt	nt	2	nt	-4	0	2.5
COc1cc(C(=O)NCC(=O)OCn2nnc3ccccc3c2=O)cc(OC)c1OC	-0.3	18	19	0.5	20	-5	2	8	-13	-0.4
CN(Cc1ccccc1)C(=O)c1ccc(NC(=O)Cc2cccc(NC(=O)C3CCCN(C(=O)C4CCCCC4)C3)c2)cc1 (configuration not stated)	2.4	4	-6	-5.7	nt	5	nt	5	0	-1.0
O=C(NCCCN1CCOCC1)c1onc(CSc2ccccc2)c1C(=O)NCCCN1CCOCC1	0.0	nt	nt	nt	1	nt	-15	2	2	-0.4
CC(C)c1nc(C(=O)N2CCCC(N3CCN(c4cccc(Cl)c4)CC3)C2)cs1 (configuration not stated)	0.6	nt	nt	nt	-7	-4	6	5	-15	1.2
COCCN(C(=O)Cc1cccs1)C(C(=O)NCc1ccc(OC)cc1)c1ccc(OC)cc1 (configuration not stated)	1.5	nt	nt	nt	-19	nt	23	-18	-2	1.3
COc1ccc(NC(=O)CSc2nnc(NC(=O)C3CCC3)s2)cc1	-0.1	6	2	-2.0	4	16	-13	-9	3	1.3
Following part:
SMILES	A1 inh	Ecoli rRNA inh	Ecoli rRNA inh OD600	Ecoli rRNA inh RFP	Calb FLC	Beta apoptosis	T cruzi repl	Beta2AR agonist	ALR H2O2 inh	LANA-H2B inh
N#C/C(N=Nc1ccccc1O)=N\Nc1ccccc1O	0.3	2	4	-8.9	0	115*	29	-55	99*	1.9
COC(=O)c1c(NC(=O)c2c(Cl)cnn2C)sc(C)c1C	0.1	12	13	0.8	-1	0	16	-7	0	-8.7
OCCN(Cc1nc(-c2ccc3c(c2)OCO3)no1)Cc1cccs1	-0.1	-16	-7	8.9	-7	-1	-7	-8	-5	-17
Fc1ccccc1-c1cc2cc3c(cc2cn1)OCO3	-11	-15	-28	-15	nt	-2	nt	-9	1	0.0
Cc1ccccc1N(C(=O)c1snc(C(N)=O)c1N)C(C(=O)NCC1CCCO1)c1ccc(N(C)C)cc1 (configuration not stated)	-0.3	5	5	-3.9	-7	1	-12	-5	nt	-1.4
CC1(C)CC(NC(=O)COc2ccccc2Cl)CC(C)(C)N1	0.1	10	6	-2.2	2	0	-9	1	nt	0.6
